High-throughput results as filed in PubChem BioAssay.
Sa RN4220 lethal – growth inhibition of S. aureus RN4220, primary screen, OD600 | 16 h | inhibition, % (no concentration beside the values) | 330,000 tested, 0.33% active | AID 1259311, 2017;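 active = z-score of -3 or lower and OD600 up to 0.18 on both plates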;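 note: plate controls were untreated cells for no effect and reference antibiotic for full effect; stock transfer was 100 nL into about 80 µL; one replicate is shown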
Sa ugtP lethal – growth inhibition of ugtP-null S. aureus, primary screen, RN4220 ugtP deletion, OD600; 16 h; some inactives read as strong as hits; growth inhibition, % (concentration not given with the values); 330,000 tested, 0.54% active; AID 1259309, 2017;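 active = z-score under -3 and OD600 up to 0.15 on both plates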;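 note: plate controls were untreated wells for no effect and antibiotic for full effect; wells of about 80 µL received 100 nL stock; the first replicate is given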
Bead autofluor – compound fluorescence in toxin protease inhibitor counterscreen. compound autofluorescence counterscreen, microsphere flow cytometry; stronger effect = higher value. fluorescence intensity (no concentration beside the values). 360,000 tested, 3.1% active. AID 624483;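 active = at least 3 SD above the mean of all compounds, about 16000 in these data; inconclusive = too few beads counted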;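 note: 100 nL of 1 mM stock went into each well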
Mtb hypoxia rep – PubChem AID 1159583; fluorescence inhibition, % (test concentration not listed); 300,000 tested, 0.1% active; M. tuberculosis hypoxia-regulated fluorescent reporter, fluorescence;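 active = 35 to 45% if threefold the growth effect, above 45% if 1.5-fold the growth effect; inactive = the rest, general growth blockers included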;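 note: wells of about 50 µL received 100 nL stock; 0% = vehicle wells and 100% = reference inhibitor wells; whole bacteria with a GFP reporter of the hypoxia response; strong numbers were not always called active; many hits fall short of the cut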
BJeLR viability – MLPCN primary cell-based screen for lethality selective to Ras in HRASV12 cells; BJeLR (HRASV12) viability, CellTiter-Glo ATP luminescence, 48 h; reference of the scale not given here; 300,000 tested, 0.17% active; inhibition, % (test concentration not listed);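 active = replicate mean above 50%; inconclusive = above 50% but judged a plate artefact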;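 note: 50 nL library stock added to about 25 µL; numbers are from one replicate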
PrP UTR inh – inhibition of PrP 5' UTR reporter expression | cell-based PrP 5' UTR mRNA reporter, plate reader | inhibition, % (concentration not given with the values) | 340,000 tested, 0.35% active | AID 488862, 2010;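 active = every replicate at 50% or more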;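 note: 0 = median of the neutral control wells; tested in H4 reporter cells; numbers are from one replicate; inactives centre near -14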
Mtb hypoxia rep growth – second read-out of Mtb hypoxia rep, no call of its own (marks repeat the call); growth inhibition, %; measured here: M. tuberculosis growth (absorbance);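 0% = vehicle and 100% = reference antibiotic; read after six days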
Active calls of the source: *; ? = inconclusive; · = no result given.

Below each SMILES – Mtb hypoxia rep growth, Sa RN4220 lethal, Sa ugtP lethal, PrP UTR inh, Bead autofluor, BJeLR viability, Mtb hypoxia rep
- CC(=O)N(c1cccc(Br)c1)c1nc(C)cc(C)c1C#N
 : 2, 3.5, 7, -22, 3893, 5, -1
- NNC(=O)/C=C/c1ccc(Cl)cc1Cl
 : 9, 0.2, -15, -17, 2083, -3, -4
- O=C(Cn1cnc2ccccc2c1=O)Nc1cccc(-c2nnc3n2CCCCC3)c1
 : ·, 3.1, 2, 1, 2361, -2, ·
- C=CCNC(=S)NN=Cc1ccc(-c2ccc(OC)cc2)o1
 : 16, 4.2, -1, ·, ·, ·, 6
- CCOC(=O)CSc1ccc(C(=O)NCCN2CCOCC2)cc1[N+](=O)[O-]
 : 7, 0.9, 6, -10, 3640, -13, 7
- CCn1c(SCC(=O)Nc2oc(-c3ccccc3)c(-c3ccccc3)c2C#N)nnc1-c1ccco1
 : ·, -11, 6, -8, 2624, -3, ·
- CC(c1ccccc1)C1CC(=O)N(Cc2ccccc2)C1=O (stereo unspecified)
 : 5, 7.8, 10, 3, 2686, 3, 15
- Cc1ccc(NC(=S)Nc2ccc3[nH]c(=O)[nH]c3c2)cc1
 : 14, 5.3, -3, -5, ·, -11, 9
- O=[N+]([O-])c1cnccc1Nc1ccc(Cl)cc1
 : 4, 2.2, 0, -6, 4960, -7, -4
- COc1ccc(OC)c(C=NNC(=O)CCc2c(C)n[nH]c2C)c1
 : 4, 3.0, 7, ·, ·, ·, 0
- COc1ccc(NC(=O)c2cn(CCC#N)nc2-c2ccccc2)cc1
 : -4, 4.2, 17, -3, 3077, -17, 8
- Cc1cc(NC(=O)CSc2nc3[nH]c(=O)cc(O)c3s2)ccc1Br
 : 3, 13, -2, -12, 6101, ·, 4
- CCOC(=O)Cn1c(-c2cccnc2Cl)nc2ccccc21
 : 9, 5.3, 12, -7, 7837, -10, 11
- CSc1ccc(S(=O)(=O)NCC(=O)OCC(=O)N2CCCCC2C)cc1[N+](=O)[O-] (stereo unspecified)
 : 4, 0.4, -3, -1, 5641, -3, 5
- O=[N+]([O-])c1cccc(/C=N/N2CCN(Cc3ccc(Cl)cc3)CC2)c1
 : ·, ·, ·, -3, 4116, -20, ·

Other records
Below each SMILES – Mtb hypoxia rep growth, Sa RN4220 lethal, Sa ugtP lethal, PrP UTR inh, Bead autofluor, BJeLR viability, Mtb hypoxia rep
- O=C(NCc1ccccc1)c1ccc(S(=O)(=O)C(F)F)cc1
 : 0, -8.0, -1, -9, 4193, 4, -1
- O=C(CN(C(=O)CCC(=O)Nc1nccs1)c1ccccc1F)NCCc1ccccc1
 : -5, -1.5, 12, -26, 4005, -9, 6
- CC(C)c1ccc(NC(=O)Nc2cc3sccc3n2C)cc1
 : -4, 3.4, -8, -21, 5119, -3, -7
- Cc1ccc2c(c1)c1c(n2CC(O)CN2CCCCCC2)CCCC1 (stereo unspecified)
 : -11, -1.1, -2, -17, 3894, 0, 8
- CN(C)S(=O)(=O)c1cc(NC(=O)CSc2nn(-c3ccc(Cl)cc3)c(=S)s2)ccc1Cl
 : 0, -11, -25, -4, 2977, -8, -3
- NC(=O)CSc1nnc(-c2ccncc2)n1-c1ccc(Cl)cc1
 : 7, 4.5, 10, -22, 6273, 4, 8
- CC(NC(=O)CCNC(=O)c1ccco1)c1ccc(F)cc1 (stereo unspecified)
 : 4, 2.0, 2, -14, 4869, -11, 0
- CN1CCN(c2ccc([N+](=O)[O-])cc2C(=O)c2ccc(Cl)cc2)CC1
 : ·, 3.6, 1, -45, 2683, -1, ·
- COc1cc(NS(=O)(=O)c2ccc3c(c2)n(C)c(=O)n3C)cc(OC)c1
 : 8, -0.5, -10, -20, 2860, 5, 2
- COc1ccc(C2(O)C(=O)Nc3ccccc32)cc1 (stereo unspecified)
 : 10, -1.5, -3, -17, 3840, 2, 19
- CCOC(=O)c1sc(NC(=O)c2ccccc2C(=O)O)c(C(=O)OCC)c1C
 : -5, 4.1, -6, -14, 3716, -3, 6
- O=C(NN=Cc1cc([N+](=O)[O-])ccc1O)c1c[nH]c2ccccc12
 : 9, 62, 46, ·, ·, ·, 10
- CCCCn1c(-c2cccs2)nc2nc3ccccc3nc21
 : 18, 37, -3, -7, 8972, -3, 12
- COc1ccc(CCNC(=O)CN2C(=O)c3ccccc3S2(=O)=O)cc1OC
 : 11, 1.5, 1, 1, 2896, -12, -3
- Cc1ccc(CN2CCN(CC(=O)N3CCC(C(N)=O)CC3)C2=O)cc1
 : -13, 3.6, 13, -7, 5714, 2, 3

Remaining list, next part
Below each SMILES – Mtb hypoxia rep growth, Sa RN4220 lethal, Sa ugtP lethal, PrP UTR inh, Bead autofluor, BJeLR viability, Mtb hypoxia rep
- COc1ccc(CNC(=O)COc2ccc(S(=O)(=O)N3CCCCC3)cc2)cc1
 : 12, 2.0, 6, -15, 6277, -16, -1
- O=C(Nc1cccc(Cl)c1)OCCOC(=O)Nc1cccc(Cl)c1
 : 16, -17, -36, -16, 3579, ·, 5
- CC1CN(c2nc3c(c(=O)n(Cc4ccc(Cl)c(Cl)c4)c(=O)n3C)n2C)CC(C)O1 (stereo unspecified)
 : -6, -4.9, -9, -15, 4244, 0, -4
- O=C(N/N=C/c1ccc(Cl)c([N+](=O)[O-])c1)c1cc(-c2ccc3c4c(cccc24)CC3)n[nH]1
 : ·, ·, ·, -41, 4501, 21, ·
- CC(=O)CC1c2ccccc2S(=O)(=O)N1C1CCCCC1 (stereo unspecified)
 : 1, -1.2, 1, ·, ·, ·, 0
- O=C(CN1CCSCC1)NN=Cc1ccc(F)cc1F
 : 2, 6.4, 4, ·, ·, ·, 18
- CC1(C)CC2CC(C)(CN2S(=O)(=O)c2cccc(C(=O)OCC(=O)NC(N)=O)c2)C1 (stereo unspecified)
 : -8, 5.8, 5, -19, ?, 3, -2
- CC1CN(C(=O)CCC(=O)NC(C)c2ccccc2)c2cc(Cl)ccc2O1 (stereo unspecified)
 : 8, -16, -5, -30, 5971, -6, 11
- Nc1nc(-c2ccc(Br)cc2)cs1
 : -5, 6.2, 23, -27, 3512, 4, -4
- O=C(N/N=C/c1ccco1)c1ccccc1OCc1ccccc1Cl
 : ·, ·, ·, -11, 2854, 28, ·
- CCCOc1ccc(N/C=C/C(=O)c2ccc(OC)c(OC)c2)cc1
 : ·, ·, ·, -10, 6176, -4, ·
- COC(=O)C1=C(C(=O)OC)[C@@H]2Nc3ccccc3[C@@]23C[C@@H](C(=O)OC)N(C(C)=O)C3=N1
 : ·, ·, ·, -13, 4037, -11, ·
- COc1ccccc1C(=O)NCC(=O)NN=Cc1ccc([N+](=O)[O-])cc1
 : 3, 0.1, 1, ·, ·, ·, 1
- COc1ccc([N+](=O)[O-])cc1/C=N/NC(=O)CNC(=O)C(c1ccccc1)c1ccccc1
 : ·, ·, ·, -63, 10440, -11, ·
- COc1ccc(C(C)(C)C)cc1NC(=O)COC(=O)CSCc1c(C)noc1C
 : 3, 5.6, 9, -8, ?, ·, 6

(continued)
Below each SMILES – Mtb hypoxia rep growth, Sa RN4220 lethal, Sa ugtP lethal, PrP UTR inh, Bead autofluor, BJeLR viability, Mtb hypoxia rep
- CC(C)(C)C1CCC(=NNC(=O)c2ccccc2-n2cccc2)CC1 (stereo unspecified)
 : 10, 1.6, -5, -19, 2123, -11, -1
- O=c1c2ccccc2c(=O)n2n1Cc1ccccc1C2
 : 0, 5.3, 0, -28, 3716, 3, 1
- COc1ccc(N2CCN(C(=O)CSc3nnc4ncccn34)CC2)cc1
 : 8, 4.8, 6, ·, 10365, 4, 4
- O=C(Nc1cc(Cl)ccc1Oc1ccccc1)c1ccc(F)cc1
 : -3, 4.4, -6, 10, 2381, 5, 2
- Cc1ccc(S(=O)(=O)N(C)c2ccc(OCC(=O)Nc3cccc(-n4cnnn4)c3C)cc2)cc1
 : -3, 0.9, 1, -19, 5919, 4, 3
- Cn1c(=O)[nH]c(=O)c2c1nc(SCC(=O)O)n2Cc1ccccc1
 : 8, 5.1, 8, -10, 3996, -2, 4
- CCC(C)N(C)C(=O)c1cc2ccccc2c(-c2ccccc2Cl)n1 (stereo unspecified)
 : 4, 3.4, -1, -39, 4251, -17, 3
- CC(/C=C/c1ccccc1)=N/O
 : ·, ·, ·, -14, 3967, 0, ·
- Cc1cc(C=NNC(=O)c2cccc([N+](=O)[O-])c2)c(C)n1-c1ccccc1
 : 13, -0.4, 0, ·, ·, ·, 1
- COc1cc(OC)cc(C(=O)N[C@H](C(=O)NCc2cccs2)C(C)C)c1
 : 4, 7.2, 5, -6, 3381, -4, 16
- COc1ccccc1CNC(=O)CCNS(=O)(=O)c1cc(Br)cnc1N
 : -1, 1.4, -2, -6, 5620, 5, 9
- Cc1nn(-c2ccccc2)c(Cl)c1C(=O)Nc1ccc(N2CCOCC2)cc1
 : 0, 0.8, -3, -13, 4161, 5, 7
- CCOC(=O)c1c(-c2ccccc2)csc1NC(=O)/C(C#N)=C/c1ccc(O)c(OC)c1
 : 6, -0.6, -2, -9, 4565, -4, 6
- COc1ccc(CCNC(=O)c2cnc3n(c2=O)CCS3)cc1OC
 : 9, 5.5, 5, ·, 12143, -14, 7
- Cc1ccc2[nH]c(=O)c(CN(CCN3CCOCC3)C(=O)Nc3ccc(F)cc3)cc2c1
 : ·, 7.6, 2, -18, 2719, 1, ·

3 entries drawn at random from those above:
Below each SMILES – Mtb hypoxia rep growth, Sa RN4220 lethal, Sa ugtP lethal, PrP UTR inh, Bead autofluor, BJeLR viability, Mtb hypoxia rep
- COc1ccc(N2CCN(C(=O)CSc3nnc4ncccn34)CC2)cc1
 : 8, 4.8, 6, ·, 10365, 4, 4
- Cc1ccc2[nH]c(=O)c(CN(CCN3CCOCC3)C(=O)Nc3ccc(F)cc3)cc2c1
 : ·, 7.6, 2, -18, 2719, 1, ·
- COc1cc(OC)cc(C(=O)N[C@H](C(=O)NCc2cccs2)C(C)C)c1
 : 4, 7.2, 5, -6, 3381, -4, 16

Continuation.
Below each SMILES – Mtb hypoxia rep growth, Sa RN4220 lethal, Sa ugtP lethal, PrP UTR inh, Bead autofluor, BJeLR viability, Mtb hypoxia rep
- CN1/C(=C/C(=S)NC(=O)C2(C)CC2(Cl)Cl)C(C)(C)c2ccccc21 (stereo unspecified)
 : 14, 0.7, 4, -6, 5126, 11, 3
- COc1ccc(-n2ncc(C(C)NS(=O)(=O)c3ccc(C(C)=O)cc3)c2C)cc1 (stereo unspecified)
 : -34, 4.5, 11, -4, 7004, -10, 8
- COc1ccc(CCNC(=O)c2ccc3c(c2)S(=O)(=O)N=C2CCCCCN23)cc1
 : -12, -0.8, -3, -6, ·, -3, -6
- Cc1ccc(Cn2ccc(NC(=O)c3cc(-c4ccccc4)on3)n2)cc1
 : 3, 4.0, -1, -7, 8729, 3, 0
- O=C(/C=C/c1ccccc1)NCC1(c2ccccc2)CCOCC1
 : -6, 4.2, 8, -10, 5647, -2, 19
- CCOc1cc(/C=N/Nc2cccc(C(=O)O)c2)ccc1OC(=O)c1ccccc1
 : ·, ·, ·, 71*, 4382, 4, ·
- CN(C)C1(CNC(=O)c2cccc(S(=O)(=O)NCc3ccccc3)c2)CCCCC1
 : -3, -0.9, 4, -18, 6297, ·, 0
- COc1cc(OC)c(NC(=O)CCNC(=O)Cn2cnc3ccccc3c2=O)cc1Cl
 : 8, -2.1, 7, -5, 2329, 1, 13
- CC1CCN(C(=O)C2CCN(S(=O)(=O)c3ccc(-n4cnnn4)cc3)CC2)CC1
 : -2, 4.6, 3, -31, 4823, 1, 14
- COCCNc1nc(Cl)c(C#N)s1
 : -6, 7.5, 10, -16, 2015, -9, -1
- O=C1CC(c2ccccc2)=C(c2ccccc2)C1
 : 9, 1.0, 12, -4, 3803, ·, 16
- O=C(NCc1ccco1)c1cnn2c(C(F)(F)F)cc(-c3ccco3)nc12
 : -3, -4.5, 2, -5, 3541, 0, 0
- CCn1c(SCC(=O)NCCc2ccc(F)cc2)nnc1-c1cccs1
 : ·, -6.4, 1, -1, 4336, -2, ·
- COc1ccc(N(C)S(=O)(=O)c2cccc(C(=O)Nc3nc4ccccc4[nH]3)c2)cc1
 : -3, 2.9, -2, -25, 4533, -3, 9
- COc1cc(OC)c2c(c1)OCC1CON(C)C21 (stereo unspecified)
 : 10, 8.5, 5, -1, 3211, 9, 15
